GALR2 ag = GALR2 (human) receptor agonism | GALR2-expressing cells, agonist activation read-out | activation, %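 (tested at 5 µM)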 | AID 803 | 140,000 compounds, 0.48% hits | O43603;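 active = above mean plus 3 SD of all compounds, about 5% in these data, not always enough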;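 also: 0% = vehicle buffer wells and 100% = reference agonist at full effect; tested in CHO reporter cells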
RGS16-Gao HTS = regulators of human RGS16-Galphao interaction; 220,000 compounds, 0.38% hits; bead-based flow cytometry RGS16-Galphao binding, fluorescence; actives lie on both sides; binding response (% of control), % at 10 µM; O15492+P09471;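 active = below 25% or above 175%, edge rows of some plates excepted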;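 also: Galphao activated by GDP with aluminum fluoride before binding; 100% = wells without compound and 0% = beads without RGS; some results beyond the cut were filed as inactive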
INS promoter inh = TRM-6 insulin promoter activity inhibition | TRM-6 cells (human fetal islet line), insulin promoter-eGFP reporter, imaging; reporter expression induced with tamoxifen | inhibition, % at 2 µM | 130,000 compounds, 0.9% hits | AID 1273;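 active = inhibition above the mean plus 3 SD, with well images judged a real hit on visual review, cut at about 60% in these data, passing the limit was not always enough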
HSV replic up = increases HSV replication in cells; HSV replication augmentation in cells, fold increase; AID 1956; maximum fold increase; 220,000 compounds, 0.005% hits;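 active = peak rise of 1.5-fold or more in the series; tested in PC3 cells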;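 also: first round at 10 µM; read as green reporter fluorescence; hits show the peak of a series up to 25 µM; 1 = signal of infected wells without compound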
PKD1 kinase inh = inhibitors of human PKD1 kinase; 200,000 compounds, 0.056% hits; AID 797; PKD1 kinase fluorescence polarization assay; inhibition, %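 (about 10 µM by stock and volumes)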;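 active = inhibition of 50% or more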;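 also: controls were vehicle for no effect and a reference inhibitor for full effect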
Target sequence (Q15139 whole entry, looked up): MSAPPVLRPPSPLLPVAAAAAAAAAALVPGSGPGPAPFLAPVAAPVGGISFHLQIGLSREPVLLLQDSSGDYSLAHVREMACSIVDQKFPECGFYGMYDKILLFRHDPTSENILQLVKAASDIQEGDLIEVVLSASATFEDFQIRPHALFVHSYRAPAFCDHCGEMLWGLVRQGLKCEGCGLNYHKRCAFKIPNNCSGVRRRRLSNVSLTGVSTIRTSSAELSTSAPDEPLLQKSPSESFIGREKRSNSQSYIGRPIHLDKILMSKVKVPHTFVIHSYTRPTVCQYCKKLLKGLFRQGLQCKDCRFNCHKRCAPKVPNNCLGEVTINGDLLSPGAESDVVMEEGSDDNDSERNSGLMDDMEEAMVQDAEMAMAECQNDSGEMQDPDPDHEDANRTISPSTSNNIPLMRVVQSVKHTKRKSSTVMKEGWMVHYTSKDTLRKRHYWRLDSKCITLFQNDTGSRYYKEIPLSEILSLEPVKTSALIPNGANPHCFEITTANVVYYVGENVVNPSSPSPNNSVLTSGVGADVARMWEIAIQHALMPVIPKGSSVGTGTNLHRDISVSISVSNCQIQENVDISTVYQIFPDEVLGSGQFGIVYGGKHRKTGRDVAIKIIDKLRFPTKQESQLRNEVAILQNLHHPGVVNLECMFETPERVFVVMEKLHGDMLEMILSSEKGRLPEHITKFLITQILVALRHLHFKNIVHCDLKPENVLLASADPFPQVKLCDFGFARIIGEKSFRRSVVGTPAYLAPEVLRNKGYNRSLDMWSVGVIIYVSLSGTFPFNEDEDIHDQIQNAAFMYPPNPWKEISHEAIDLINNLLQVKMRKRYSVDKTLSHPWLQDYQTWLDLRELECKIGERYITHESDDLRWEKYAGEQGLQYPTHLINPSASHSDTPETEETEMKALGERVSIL
INS promoter inh cell count = further read-out of INS promoter inh, marked with its call; normalized cell count, %; measured here: cell count, toxicity; reference of the scale not given here;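 cells exposed to compound for 48 h; stained nuclei by imaging scaled within each plate; lower means fewer cells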
HSV replic up primary fold = recorded beside HSV replic up, whose call it bears; fold increase; compound at 10 µM; measured here: primary screen fold increase 10 uM; tested in PC3 cells;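 GFP signal in the first replicate; 1 = infected wells without compound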
An asterisk follows results filed as active; i = inactive; x = not tested or not shown; & = joins results of further samples.

SMILES | GALR2 ag | RGS16-Gao HTS | INS promoter inh | INS promoter inh cell count | HSV replic up | HSV replic up primary fold | PKD1 kinase inh
Cc1noc(C)c1CSc1nc2sc(C)c(C)c2c(=O)n1C1CCCC1 | -1.6 | 94 | -8 | 109 | i | 0.86 | -10
CCCc1cc2c(=O)c(-c3cscn3)c(C(=O)OCC)oc2cc1O | x | 98 | x | x | i | 1.1 | 2
CC(=O)NC1=NN(C(C)=O)C(C)(c2ccc3ccccc3c2)S1 (stereo not given) | -0.1 | 76 | 11 | 132 | i | 0.96 | -9
Cn1c(=O)oc2cc(S(=O)(=O)Nc3ccc4c(c3)OCO4)ccc21 | -0.6 | 104 | 18 | 56 | i | 1 | 8
O=C(NCCc1ccccc1)C(=O)NCC1OCCN1S(=O)(=O)c1ccc(Cl)cc1 (stereo not given) | x | 103 | x | x | i | 1 | x
O=C(Nc1nccs1)c1cncc(Br)c1 | x | 104 | x | x | i | 0.91 | -3
CN(C)S(=O)(=O)c1ccc(C(=O)Nc2ccccn2)cc1 | -3.3 | 98 | x | x | i | 0.86 | 6
O=C(NCC1CCCO1)C(=O)NCC(c1ccco1)N1CCN(c2ccccc2F)CC1 (stereo not given) | -1.0 | 103 | -90 | 93 | i | 0.98 | -5
COc1ccc(CCN=C(N)NS(=O)(=O)c2ccc(OC)cc2)cc1 | -0.2 | 106 | 41 | 161 | i | 0.92 | 0
CCC(=O)NC1(C(F)(F)F)C(=O)Nc2c1c(=O)[nH]c(=O)n2CC(C)C (stereo not given) | x | 93 | x | x | i | 0.93 | x
CC(C)CNC(=S)NNC(=O)c1csc2c1CCCC2 | -2.4 | 116 | -4 | 117 | i | 1 | -8
CCCCCc1cc(=O)oc2c(C(CCN(CC)CC)c3ccc(N(C)C)cc3)c(OC)cc(OC)c12 (stereo not given) | x | 105 | x | x | i | 0.84 | x
O=C(NCc1cccnc1)NC1(C(F)(F)F)Oc2ccc(Cl)cc2O1 (stereo not given) | -2.8 | 112 | x | x | i | 0.81 | 2
CC(=O)Nc1ccc2c(CSc3nnc(N)s3)cc(=O)oc2c1 | x | 104 | x | x | i | 0.97 | x
COCCCn1c(N)c(-c2nc3ccccc3n2C)c2nc3ccccc3nc21 | -2.0 | 95 | -46 | 136 | i | 1.1 | -7
CC(=O)OCC(=O)c1c[nH]c2ccccc12 | x | 101 | x | x | i | 1 | -1
CCCCn1c(N)c(Sc2ccccc2)c(=O)[nH]c1=O | -3.2 | 104 | 0 | 76 | i | 0.91 | 4
CCOc1ccc(N/C=C/C(=O)c2ccc(C)cc2)c([N+](=O)[O-])c1 | -1.3 | 100 | 26 | 74 | i | 0.78 | -8
CCN(CC)S(=O)(=O)c1ccc(OC)c(NC(=O)c2cc3c(=O)n4ccccc4nc3s2)c1 | 0.1 | 101 | -15 | 96 | i | 0.96 | -3
COC(=O)CSc1nc(C)c2c(n1)CCCC2 | x | 111 | 27 | 148 | i | 0.86 | 1
CC1CC(C)CN(c2nc(N(C)c3ccccc3)nc(N)c2[N+](=O)[O-])C1 (stereo not given) | x | 97 | x | x | i | 0.92 | x
O=C(Nc1ccccc1)C1CCCCN1S(=O)(=O)c1ccccc1 (stereo not given) | x | 102 | x | x | i | 0.95 | 3
CC(C)CC(=O)Nc1cc(C(F)(F)F)ccc1N1CCOCC1 | -0.2 | 101 | 17 | 149 | i | 1.1 | 0
CN1CCCC1CCNC1C2CC3CC(C2)CC1C3 (stereo not given) | -0.4 | 90 | -63 | 132 | x | x | 0
CCN1CNC(=S)N(c2cccc(C)c2C)C1 | -3.8 | 97 | -11 | 130 | i | 0.98 | -3
CC(C)CCC(C(=O)O)C(C)CC(=O)NNC(=O)c1ccco1 (stereo not given) | x | 96&106 | x | x | i | 1&0.91 | -2
Brc1nc(Br)n(Cc2ccccc2)n1 | x | 101 | x | x | i | 0.93 | -6
O=C(CCS(=O)(=O)Cc1ccccc1)NCC1CCCO1 (stereo not given) | -2.4 | 105 | -305 | 51 | i | 1.1 | -4
CCOC(=O)c1nn(-c2ccc(Br)cc2)cc1C(=O)c1cccc2ccccc12 | -2.1 | 100 | x | x | i | 0.77 | 8
CCCCCCc1c(O)c2ccccc2[nH]c1=O | -1.3 | 101 | 12 | 101 | i | 0.89 | 2

Reformatted: entries from further up.
The line under a structure holds: GALR2 ag, RGS16-Gao HTS, INS promoter inh, INS promoter inh cell count, HSV replic up, HSV replic up primary fold, PKD1 kinase inh
> CC1CC(C)CN(c2nc(N(C)c3ccccc3)nc(N)c2[N+](=O)[O-])C1 (stereo not given)
→ x, 97, x, x, i, 0.92, x
> O=C(CCS(=O)(=O)Cc1ccccc1)NCC1CCCO1 (stereo not given)
→ -2.4, 105, -305, 51, i, 1.1, -4

Additional structures follow.
SMILES | GALR2 ag | RGS16-Gao HTS | INS promoter inh | INS promoter inh cell count | HSV replic up | HSV replic up primary fold | PKD1 kinase inh
O=C(NNc1ncc(C(F)(F)F)cc1Cl)c1ccc(Cl)c(Cl)c1 | x | 94 | x | x | i | 0.96 | x
CCOC(=O)c1cc2cc([N+](=O)[O-])ccc2oc1=O | x | 100 | x | x | i | 0.93 | x
CCN1C(=O)CS/C1=N\S(=O)(=O)c1ccccc1 | x | 101 | x | x | i | 1.1 | x
Cc1oc2nc(SCC(=O)NCCCO)nc(N)c2c1C | -2.2 | 102 | -23 | 158 | i | 0.72 | 5
CN(C)/C=N/NC(=O)c1ccc(Cl)cc1 | x | 100 | x | x | i | 0.96 | -4
O=S(=O)(Cc1cc(NCc2ccccc2)nc(-c2ccccn2)n1)c1ccccc1 | x | 90 | -15 | 59 | i | 0.77 | -2
CC(C)(C)NC(=O)NC(=O)COC(=O)CCC1CCCC1 | x | 100 | x | x | i | 1 | x
COc1cccc(-n2ccnc2SCC(=O)NCc2ccccc2)c1 | -1.5 | 102 | x | x | i | 0.79 | -1
Cc1ccc(-c2nnn(CC(=O)N3CCCCC3)n2)o1 | x | 107 | 0 | 123 | i | 0.87 | 2
COc1ccc(N(C(=O)CCl)C(C(=O)NC2CCCCC2)c2cccnc2)cc1 (stereo not given) | -1.9 | 103 | 45 | 36 | i | 1.1 | -9

Another view of part of the listing above:
Values run as follows: GALR2 ag | RGS16-Gao HTS | INS promoter inh | INS promoter inh cell count | HSV replic up | HSV replic up primary fold | PKD1 kinase inh
CN1CCCC1CCNC1C2CC3CC(C2)CC1C3 (stereo not given)
  -0.4 | 90 | -63 | 132 | x | x | 0
CCN1CNC(=S)N(c2cccc(C)c2C)C1
  -3.8 | 97 | -11 | 130 | i | 0.98 | -3
CC(C)CCC(C(=O)O)C(C)CC(=O)NNC(=O)c1ccco1 (stereo not given)
  x | 96&106 | x | x | i | 1&0.91 | -2
Brc1nc(Br)n(Cc2ccccc2)n1
  x | 101 | x | x | i | 0.93 | -6
O=C(CCS(=O)(=O)Cc1ccccc1)NCC1CCCO1 (stereo not given)
  -2.4 | 105 | -305 | 51 | i | 1.1 | -4
CCOC(=O)c1nn(-c2ccc(Br)cc2)cc1C(=O)c1cccc2ccccc12
  -2.1 | 100 | x | x | i | 0.77 | 8
CCCCCCc1c(O)c2ccccc2[nH]c1=O
  -1.3 | 101 | 12 | 101 | i | 0.89 | 2
O=C(NNc1ncc(C(F)(F)F)cc1Cl)c1ccc(Cl)c(Cl)c1
  x | 94 | x | x | i | 0.96 | x
CCOC(=O)c1cc2cc([N+](=O)[O-])ccc2oc1=O
  x | 100 | x | x | i | 0.93 | x
CCN1C(=O)CS/C1=N\S(=O)(=O)c1ccccc1
  x | 101 | x | x | i | 1.1 | x
Cc1oc2nc(SCC(=O)NCCCO)nc(N)c2c1C
  -2.2 | 102 | -23 | 158 | i | 0.72 | 5
CN(C)/C=N/NC(=O)c1ccc(Cl)cc1
  x | 100 | x | x | i | 0.96 | -4
O=S(=O)(Cc1cc(NCc2ccccc2)nc(-c2ccccn2)n1)c1ccccc1
  x | 90 | -15 | 59 | i | 0.77 | -2
CC(C)(C)NC(=O)NC(=O)COC(=O)CCC1CCCC1
  x | 100 | x | x | i | 1 | x
COc1cccc(-n2ccnc2SCC(=O)NCc2ccccc2)c1
  -1.5 | 102 | x | x | i | 0.79 | -1
Cc1ccc(-c2nnn(CC(=O)N3CCCCC3)n2)o1
  x | 107 | 0 | 123 | i | 0.87 | 2
COc1ccc(N(C(=O)CCl)C(C(=O)NC2CCCCC2)c2cccnc2)cc1 (stereo not given)
  -1.9 | 103 | 45 | 36 | i | 1.1 | -9

The list goes on:
SMILES | GALR2 ag | RGS16-Gao HTS | INS promoter inh | INS promoter inh cell count | HSV replic up | HSV replic up primary fold | PKD1 kinase inh
CCc1nnc(NS(=O)(=O)c2ccc(N/C=C\C(=O)c3ccc4ccccc4c3)cc2)s1 | -0.8 | 90 | -11 | 84 | i | 1 | -6
Cc1ccc(-c2nnc(CSc3nnc(C)s3)o2)cc1 | -0.7 | 101 | -35 | 80 | i | 0.85 | -10
COc1ccccc1NC(=O)c1ccccc1SC | -2.2 | 108 | 18 | 157 | i | 0.85 | -4
COc1ccc2cc3c(N)nn(C(=O)c4ccccc4Cl)c3nc2c1 | x | 100 | x | x | i | 0.47 | x
COCCN(C(=O)CSc1nnc(-c2ccccc2C)n1C)c1c(N)n(Cc2ccccc2)c(=O)[nH]c1=O | x | 93 | 14 | 212 | x | x | -6
N#Cc1nc(-c2ccc(OCc3ccccc3Cl)cc2)oc1NCCCn1ccnc1 | -1.5 | 92 | x | x | x | x | -6
O=C(CSc1ncn[nH]1)NC1CCCc2ccccc21 (stereo not given) | x | 102 | 0 | 145 | i | 0.96 | 2
C=CCn1c(C)cc(C(=O)COC(=O)COc2ccccc2C#N)c1C | 0.7 | 96 | x | x | i | 0.91 | -7
Cc1ccc(S(=O)(=O)CCSC(=N)N)cc1 | x | 101 | 5 | 89 | i | 0.77 | -1
Cc1ccc(NC(=O)c2sccc2C)cc1[N+](=O)[O-] | 0.6 | 97 | -29 | 106 | i | 1 | -3
Cc1cc(CC(=O)O)c(C)cc1CC(=O)O | 1.1 | 103 | -43 | 138 | i | 0.91 | -8
COc1ccccc1NC(=O)c1ccc(-n2cncn2)nc1 | x | 99 | x | x | i | 1.1 | -3
COc1ccc(C(=O)CC(c2ccccc2)C2CCCCC2=O)cc1 (stereo not given) | -2.8 | 73 | -26 | 30 | i | 0.86 | 8
COc1ccc(CCNC(=O)CSc2nnc(CNC(=O)c3cccs3)o2)cc1OC | -2.5 | 110 | 21 | 111 | i | 1 | -5
S=C(Nc1ccc(Nc2ccccc2)cc1)NC1CCCCCC1 | x | 99 | x | x | i | 0.87 | 0
COc1ccc(CNC(=O)C2CCCN(S(=O)(=O)c3cc(C)ccc3OC)C2)cc1 (stereo not given) | -1.1 | 90 | -19 | 192 | i | 0.86 | -4
NC1=NC(=O)/C(=C\c2cccnc2)S1 | x | 98 | x | x | i | 0.88 | 6
CN(C(=O)COc1nnc(-c2cccs2)c(-c2cccs2)n1)c1ccccc1 | -3.1 | 104 | -32 | 57 | i | 0.92 | 3
CC(=O)Cc1nsc(NC(=O)c2ccc(Br)o2)n1 | -2.3 | 112 | -60 | 55 | i | 0.97 | -6
COc1ccc(Cc2nnc(NC(=O)CSc3ccc(C)cc3)s2)cc1 | -1.4 | 95 | 3 | 96 | i | 1 | -7
CC(=O)C1=C(O)C(=O)N(c2cccnc2)C1c1cccc([N+](=O)[O-])c1 (stereo not given) | x | 99 | x | x | i | 1 | x
CN(C(=O)CSc1nc2cc(C(=O)O)ccc2c(=O)n1Cc1ccccc1)C1CCS(=O)(=O)C1 (stereo not given) | x | 104 | 43 | 146 | i | 0.93 | -7
CCC(=O)Nc1cc(NC(=O)CSc2ncc(-c3ccc(F)cc3)n2Cc2ccco2)ccc1C | -0.4 | 172 | x | x | i | 1 | -1
CCOC(=O)c1ccc2[nH]c(C)cc(=O)c2c1 | -2.2 | 101 | x | x | i | 0.88 | 4
OCCNC(=S)NC1CCCCC1 | -0.5 | 102 | 3 | 105 | i | 0.98 | 2
CN1CCN(C(=S)c2ccc(-c3cccc([N+](=O)[O-])c3)o2)CC1 | x | 137 | x | x | i | 0.93 | x
CCN(C(C)=O)N(CC)c1nc(Cl)nc(NC(C)C)n1 | 0.2 | 100 | -17 | 76 | i | 1.1 | -3
CCN(CC)c1ccc(/C=N/NC(=O)OC)c(O)c1 | -1.8 | 99 | -1 | 81 | i | 0.87 | 4
C/C(=N\NC(=S)NCc1ccccc1)c1ccc(C(C)(C)C)cc1 | -0.9 | 105 | 18 | 91 | i | 0.84 | 0
COc1ccc(NC(=O)Nc2ccc3c(c2)N(C)C(=O)CS3)cc1Cl | -3.6 | 103 | 0 | 102 | i | 0.85 | -3
Cc1ccnc(NC2c3ccccc3C(=O)N2Cc2ccccc2Cl)c1 (stereo not given) | -1.0 | 90 | x | x | i | 1.1 | -4
Cc1cc(C(=O)N/N=C/c2cccnc2)n[nH]1 | x | 105 | x | x | i | 1 | x
CN(C)CCCNc1ccc(S(N)(=O)=O)cc1[N+](=O)[O-] | -2.0 | 101 | 8 | 108 | i | 0.92 | -6

Source: PubChem BioAssay
